EPAC1 agonist: validation of human EPAC1 agonists | AID 1645883 | EPAC1 Rap1b BODIPY-GDP exchange, fluorescence | Potency, µM, without a hit: max response, positive = active, hits mostly activators | O95398 | 1% of 16,000 active; active means well fitted activation curve with a large enough effect; inconclusive means small, poorly fitted or top-dose-only effect; inactive means no such curve, though single readings can be large or run the other way;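 further: nearly all actives have a fitted effect of over 70% in size; series mostly up to about 76 or 150 µM; scaled to a cAMP control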
Target sequence (O95398 whole entry, looked up): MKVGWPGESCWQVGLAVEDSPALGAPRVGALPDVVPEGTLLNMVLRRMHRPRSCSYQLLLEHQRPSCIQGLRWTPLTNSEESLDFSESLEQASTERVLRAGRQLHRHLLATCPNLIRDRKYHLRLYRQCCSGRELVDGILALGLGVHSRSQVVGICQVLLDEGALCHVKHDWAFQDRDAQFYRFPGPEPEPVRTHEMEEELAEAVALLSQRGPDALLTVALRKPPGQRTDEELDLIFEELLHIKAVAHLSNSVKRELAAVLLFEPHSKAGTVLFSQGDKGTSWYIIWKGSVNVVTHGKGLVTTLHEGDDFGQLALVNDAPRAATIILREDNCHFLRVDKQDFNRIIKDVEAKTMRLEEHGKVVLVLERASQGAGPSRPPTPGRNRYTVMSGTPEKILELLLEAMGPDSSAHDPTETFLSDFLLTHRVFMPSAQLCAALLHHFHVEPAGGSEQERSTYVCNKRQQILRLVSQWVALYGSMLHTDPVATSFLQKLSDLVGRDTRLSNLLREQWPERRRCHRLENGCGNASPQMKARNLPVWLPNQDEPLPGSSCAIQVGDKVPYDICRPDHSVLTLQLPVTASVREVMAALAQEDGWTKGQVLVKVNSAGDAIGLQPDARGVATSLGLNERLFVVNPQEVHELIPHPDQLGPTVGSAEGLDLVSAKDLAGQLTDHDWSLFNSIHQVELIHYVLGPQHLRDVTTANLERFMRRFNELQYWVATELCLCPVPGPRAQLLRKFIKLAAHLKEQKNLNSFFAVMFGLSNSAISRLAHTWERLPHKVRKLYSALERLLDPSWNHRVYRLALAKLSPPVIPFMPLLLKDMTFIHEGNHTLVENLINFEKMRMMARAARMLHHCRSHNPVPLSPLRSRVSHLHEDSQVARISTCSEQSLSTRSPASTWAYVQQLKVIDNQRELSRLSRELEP
* hit, by the source's call; ? = inconclusive; & = joins results of further samples; [ ] = dose if it differs, or a comment. On the % scale 0 is the no-effect control and ±100 the full control effect; potency means the concentration at half of the fitted maximal effect. Some of the compounds tested. The share of hits here may be higher or lower than overall.

| cpd | molecule | EPAC1 agonist |
| --- | --- | --- |
| 1 | O=C(NCCN1CCCCC1)c1ccc(I)cc1 | -9.5%&7.3% |
| 2 | CCCCCCCCCCCCCc1ccco1 | -33.3% |
| 3 | COC(=O)C1=C(C)NC(C)=C([N+](=O)[O-])C1c1ccccc1C(F)(F)F (stereo unspecified) | 2.0%&-8.5%&-15.8% |
| 4 | CC(C)(C)C1CCC(=O)N(CCSc2ccccc2)CC1 (stereo unspecified) | -4.8% |
| 5 | CC(N)(Cc1ccc(O)c(O)c1)C(=O)O (stereo unspecified) | -6.1% |
| 6 | COc1cccc2c(=O)c3ccccc3oc12 | 26.7% |
| 7 | Cc1ccc(C(=O)[C@@H]2[C@H]3C4COC(O4)C(=O)[C@@H]3[C@H]3C=Cc4ccccc4N32)cc1 (stereo partly specified) | 15.0% |
| 8 | O=c1c(-c2cccc(Cl)c2)nc2cncnc2n1Cc1ccccc1Cl | ? |
| 9 | C=C1C(N)CC2CC1C2(C)C (stereo unspecified) | ? |
| 10 | CC(C)CN1CCC2(CC1)CCN(C(=O)c1cccc(F)c1)CC2 | -28.1% |
| 11 | CC(C)NC(=O)N1CCCC2(CCN(C(=O)c3csnn3)CC2)C1 | -26.4% |
| 12 | CC(CN1c2ccccc2Sc2cccnc21)N(C)C (stereo unspecified) | -16.2% |
| 13 | CC(=O)OCC(=O)[C@H]1CC[C@H]2[C@@H]3CCC4=CC(=O)CC[C@]4(C)[C@H]3CC[C@]12C | -15.3% |
| 14 | N[C@@H](C(=O)O)c1ccc(C(=O)O)c(O)c1 | 6.3% |
| 15 | CN(C)C(=O)c1ccc(-c2nc(N(C)C)c3ccccc3n2)cc1 | 0.0% |
| 16 | C=C(C)C(=O)OC[C@@H]1CCC[N@+]2(C)CCCCC12 (stereo partly specified) | -6.0% |
| 17 | COc1cc2nc(N(C)C)c(CNCc3cccc4ccccc34)cc2c(OC)c1OC | -17.5% |
| 18 | CC[N+](CC)(CC)CCC(O)(c1ccccc1)C1CCCCC1 (stereo unspecified) | -10.8% |
| 19 | CN(CC[C@@H](Oc1ccc(-c2ccccc2)cc1)c1ccc(F)cc1)CC(=O)O | -9.5% |
| 20 | COc1ccc(NC(=O)N2CCCC3(CCN(C(=O)c4cccc(F)c4)CC3)C2)cc1 | -2.9% |
| 21 | O=C([C@@H]1C[C@@H](Sc2nc3ccccc3[nH]2)CN1CC1CCCCC1)N1CCOCC1 | -1.8% |
| 22 | Cc1ccccc1-c1cc(NCCN2CCOCC2)ncn1 | 2.0% |
| 23 | COc1ccccc1-c1nc(N2CCN(C)CC2)c2ccccc2n1 | -31.8% |
| 24 | CCC1COCCS(=O)(=O)N1Cc1ccccc1F (stereo unspecified) | 28.9% |
| 25 | O=C1C[C@@H]2c3c(cccc3CN1Cc1ccc(Cl)cc1)C[C@@H](O)[C@H]2O | 13.9% |

Ordered by SMILES length (highest first): part of the list above
| cpd | molecule | EPAC1 agonist |
| --- | --- | --- |
| 21 | O=C([C@@H]1C[C@@H](Sc2nc3ccccc3[nH]2)CN1CC1CCCCC1)N1CCOCC1 | -1.8% |
| 10 | CC(C)CN1CCC2(CC1)CCN(C(=O)c1cccc(F)c1)CC2 | -28.1% |
| 23 | COc1ccccc1-c1nc(N2CCN(C)CC2)c2ccccc2n1 | -31.8% |
| 5 | CC(N)(Cc1ccc(O)c(O)c1)C(=O)O (stereo unspecified) | -6.1% |
| 6 | COc1cccc2c(=O)c3ccccc3oc12 | 26.7% |

Continued.
| cpd | molecule | EPAC1 agonist |
| --- | --- | --- |
| 26 | O=C(NCc1nnc2n1CCN(Cc1cc(F)cc(F)c1)CC2)c1cccc(F)c1 | 5.2% |
| 27 | CS(=O)(=O)N1CCC[C@@]2(CCN(c3ccccn3)C2)C1 | -29.8% |
| 28 | CN1CCN(c2nc(-c3cccnc3)nc3ccccc23)CC1 | -32.5%[inhibitor] |
| 29 | COc1cc(NC(C)CCCN)c2ncccc2c1 (stereo unspecified) | 9.3%&0.0% |
| 30 | COCCn1c(=O)c(-c2ccc(OC)cc2)nc2cnc(OC)nc21 | -46.1%[inhibitor] |
| 31 | CN(C)c1ccc(O)c2c1C[C@H]1C[C@H]3[C@H](N(C)C)C(=O)C(C(N)=O)=C(O)[C@@]3(O)C(=O)C1=C2O | -25.5%&-8.4%&-20.4% |
| 32 | O=c1c(-c2ccc(Cl)cc2)nc2cnc(Oc3ccccc3)nc2n1C1CC1 | 3.2% |
| 33 | O=c1c(-c2ccccc2)nc2cnc(N3CCOCC3)nc2n1Cc1ccc(F)cc1 | 0.3% |
| 34 | COCCn1c(=O)c(-c2ccccc2)nc2cnc(Oc3ccccc3)nc21 | ? |
| 35 | Cn1ncc(S(=O)(=O)Cc2ccccc2)c(Br)c1=O | 0.3% |
| 36 | N#Cc1cc([N+](=O)[O-])c2sc(C(N)=O)[n+]([O-])c2c1 | -12.2% |
| 37 | COc1ccc(Oc2ncc3nc(-c4ccc(OC)cc4)c(=O)n(CCC#N)c3n2)cc1 | -39.4%[inhibitor] |
| 38 | COc1cc(=O)n2c(c1C(=O)NCc1ccco1)CCN(Cc1cccc(C)n1)CC2 | 3.2% |
| 39 | O=S(=O)(c1ccccc1)N1CCC[C@@]2(CCN(c3ncccn3)C2)C1 | -78.5%[inhibitor] |
| 40 | COc1ccc(C[C@H](C)NC[C@@H](O)c2ccc(O)c(NC=O)c2)cc1 | 6.5% |
| 41 | CN1CCN(c2ncc3nc(-c4cccc(C#N)c4)c(=O)n(C[C@H]4CCCO4)c3n2)CC1 | -10.6% |
| 42 | Cc1ccc(C(=O)c2cc(O)c(O)c([N+](=O)[O-])c2)cc1 | 11.7% |
| 43 | CO[C@H]1[C@H](NC(=O)c2ccco2)c2ccccc2C12CCN(Cc1cnn(-c3ccccc3)c1)CC2 | 6.7% |
| 44 | CN(C)c1cc2c(Nc3ccc4c(cnn4Cc4ccccc4)c3)ncnc2cn1 | 7.6% |
| 45 | CC[C@H](C)[C@@H]1NC(=O)[C@H](Cc2ccc(O)cc2)NC(=O)[C@@H](N)CSSC[C@@H](C(=O)N2CCC[C@H]2C(=O)N[C@@H](CC(C)C)C(=O)NCC(N)=O)NC(=O)[C@H](CC(N)=O)NC(=O)[C@H](CCC(N)=O)NC1=O | -21.4% |
| 46 | COCCn1c(=O)c(CCc2ccccc2)nc2cnc(OC)nc21 | -39.7%[inhibitor] |
| 47 | O=C(/C=C/c1ccc(O)c(O)c1)O[C@H]1C[C@@](O)(C(=O)O)CC(O)C1O (stereo partly specified) | -3.7% |
| 48 | O=c1c(O)c(-c2ccc(O)cc2)oc2cc(O)ccc12 | -2.1% |
| 49 | COc1cccc(Cn2c(=O)c(-c3ccc(F)cc3)nc3cnc(N4CCOCC4)nc32)c1 | ? |
| 50 | COc1cc(N(C)C)c(OC)cc1C=O | ? |

Numbers 26–27 of the list above:
| cpd | molecule | EPAC1 agonist |
| --- | --- | --- |
| 26 | O=C(NCc1nnc2n1CCN(Cc1cc(F)cc(F)c1)CC2)c1cccc(F)c1 | 5.2% |
| 27 | CS(=O)(=O)N1CCC[C@@]2(CCN(c3ccccn3)C2)C1 | -29.8% |

(further entries)
| cpd | molecule | EPAC1 agonist |
| --- | --- | --- |
| 51 | COc1cccc(-c2cc(NCc3cnc(C)cn3)ncn2)c1 | -32.9%[inhibitor] |
| 52 | CNc1ncnc2c1ncn2[C@H]1C[C@H](OP(=O)(O)O)[C@H](COP(=O)(O)O)O1 | 7.7% |
| 53 | CCCCCCCCCCCCCCCC(=O)OCC(COP(=O)(O)O)OC(=O)CCCCCCCCCCCCCCC (stereo unspecified) | -7.8% |
| 54 | CC(C)CN1CCC(=O)N([C@H](CSc2ccccc2)Cc2ccccc2)CC1 | -2.6% |
| 55 | Cc1noc(C)c1C(=O)N1CCC2(CCN(Cc3cc(C(F)(F)F)cc(C(F)(F)F)c3)CC2)CC1 | -16.7% |
| 56 | COc1cc(=O)n2c(c1C(=O)N(C)Cc1nonc1C)CCN(C(=O)c1cccc(C)c1C)CC2 | 15.2% |
| 57 | Nc1nc2[nH]c(=O)[nH]c2c(=O)[nH]1 | ? |
| 58 | N#CCCn1c(=O)c(-c2cccs2)nc2cnc(Nc3ccccc3)nc21 | ? |
| 59 | COc1cccc(Cn2c(=O)c(-c3ccccc3)nc3cnc(N(C)C)nc32)c1 | 26.5% |
| 60 | COC(=O)[C@@H](CC(C)C)NS(=O)(=O)N(Cc1ccccc1)[C@@H](CC(C)C)C(=O)OC | -84.3%[inhibitor] |
| 61 | COCCn1c(=O)c(-c2cn(C)c3ccccc23)nc2cnc(OCc3ccccc3)nc21 | 2.3% |
| 62 | COCC(=O)N1CCC2(CCCN(c3ncccn3)C2)CC1 | 13.3% |
| 63 | C[C@]12CCC(=O)C=C1CC[C@@H]1[C@@H]2C(=O)C[C@@]2(C)[C@H]1CC[C@]2(O)C(=O)CO | 0.9%&-4.7%&-23.0% |
| 64 | O=C(Oc1ccccc1)N1CCC2(CC1)CCN(c1ncccn1)CC2 | -71.0%[inhibitor] |
| 65 | CC[C@@]1(c2ccccc2)NC(=O)N(C)C1=O | -29.2% |
| 66 | CC(C)C[C@H](NC(=O)[C@H](Cc1ccccc1)NC(=O)CNC(=O)CNC(=O)[C@@H](N)Cc1ccc(O)cc1)C(=O)N[C@@H](CCCN=C(N)N)C(=O)N[C@@H](CCCN=C(N)N)C(=O)N[C@@H](CCC(N)=O)C(=O)N[C@@H](Cc1ccccc1)C(=O)N[C@@H](CCCCN)C(=O)N[C@H](C(=O)N[C@H](C(=O)N[C@H](C(=O)O)[C@@H](C)O)C(C)C)C(C)C | -1.3% |
| 67 | CC(C)=CCC/C(C)=C/CC/C(C)=C/CC/C(C)=C/CC/C(C)=C/CC/C(C)=C/CC/C(C)=C/CC/C(C)=C/CC/C(C)=C/CO | 2.0% |
| 68 | Cc1cnc(C)c(-c2cccc3c2OC(CNC(=O)/C=C/c2ccc(F)c(F)c2)C3)n1 (stereo unspecified) | -13.7% |
| 69 | O=C(O)C[C@H]1c2cc(F)ccc2S(=O)(=O)N1C1CCCCC1 | ? |
| 70 | c1nc(N2CCNCC2)c2cc(-c3ccoc3)ccc2n1 | 8.2% |
| 71 | O=NN(CCCl)C(=O)NC1CCCCC1 | -24.6% |
| 72 | COCC(=O)N1CCC2(CCN(Cc3nccs3)CC2)CC1 | -57.1%[inhibitor] |
| 73 | CN(C)c1ncc2nc(CCc3ccccc3)c(=O)n(C[C@H]3CCCO3)c2n1 | -45.6%[inhibitor] |
| 74 | Cc1cnc2c(C)cccc2c1C | ? |
| 75 | C[C@@H](CSc1ccc(Br)cc1)CN1CC[C@H](O)CCC1=O | -4.3% |

Another view of four compounds above:
#56 COc1cc(=O)n2c(c1C(=O)N(C)Cc1nonc1C)CCN(C(=O)c1cccc(C)c1C)CC2
  EPAC1 agonist: 15.2%

#64 O=C(Oc1ccccc1)N1CCC2(CC1)CCN(c1ncccn1)CC2
  EPAC1 agonist: -71.0%[inhibitor]

#63 C[C@]12CCC(=O)C=C1CC[C@@H]1[C@@H]2C(=O)C[C@@]2(C)[C@H]1CC[C@]2(O)C(=O)CO
  EPAC1 agonist: 0.9%&-4.7%&-23.0%

#74 Cc1cnc2c(C)cccc2c1C
  EPAC1 agonist: ?

Screening results from PubChem BioAssay.
